eIF4H inh: inhibitors of RNA binding by human eIF4H | Q15056 | eIF4H fluorescence polarization binding assay | inhibition, % at 35 µM | actives 0.94% (n = 290,000) | AID 2012;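 active means 50% or more with normal probe brightness, or confirmed in later tests; inconclusive means above 50% with abnormal brightness, or retests that disagree; inactive means below 50% or failed in later tests; about a fifth of its hits are not listed in these tables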;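 further: calls also rest on retests at 20 µM and on dose response follow-up; 0% = protein and probe with vehicle and 100% = probe without protein; strong numbers were not always called active; many hits fall short of the cut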
CSC inhib: blocks cancer stem cells; cancer stem cell-like cells viability, luminescence; inhibition, % at 7.5 µM; actives 1.1% (n = 300,000); AID 2717;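 active means mean at 75% or more and at least half the replicates too; inconclusive means mean and replicates disagree; tested in HMLE shEcad cells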;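 further: 0% = median of negative and 100% = median of positive control wells; the first replicate is given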
HIV Env fusion: HIV envelope-mediated fusion inhibition; actives 1.1% (n = 360,000); inhibition, % at 12.3 µM; HeLa-JRFL Env/CEM21 cell fusion, luciferase;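 active means mean replicate inhibition score of at least 50 and every replicate individually at or above 50; inconclusive means only one of the two criteria met; inactive means mean below 50 and not all replicates reaching 50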;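 further: 0% = plate neutral controls and 100% = maraviroc near 300 nM; one replicate is shown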
MT1-MMP act inh: inhibitors of human MT1-MMP activation; actives 0.061% (n = 360,000); GFP/RFP ratio change, % at 20 µM; HT1080 RFP-PRO-GFP cells, GFP/RFP ratio fluorescence, overnight; percent of plate control window, DMSO zero;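 active means GFP/RFP ratio change of at least 30% with cell ATP level not reduced by more than half and red fluorescence within 50% of control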; further: strong numbers were not always called active
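Assay system: HT1080 RFP-PRO-GFP cells. Benchmarks: DMSO vehicle wells and RFP-L50D-GFP reporter cell wells. Times: overnight cell settling, then overnight compound exposure, 37 °C, 5% CO2. Compound: 20 µM single dose, 1% DMSO. Read-out basis: GFP/RFP fluorescence ratio.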
Rce1 inhib: yeast Ras-converting enzyme inhibition; AID 2563; actives 0.27% (n = 290,000); calls only; Q03530; yeast membranes, quenched prenylated peptide cleavage fluorescence;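 active means fall in fluorescence gain of 50% or more versus controls, with final raw signal at or below 3038400; inconclusive means same 50% fall but final raw signal above 3038400; inactive means fall in fluorescence gain under 50%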;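 further: plate controls were neutral control wells for no effect and wells lacking membranes for full effect; tested at 10 µM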
PABP FP inh: PABP-poly(A) binding inhibition; actives 1% (n = 290,000); P11940; PABP-poly(A) RNA binding, fluorescence polarization; AID 2014; inhibition, % at 35 µM;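 active means 50% or more with normal probe brightness, or confirmed in later tests; inconclusive means above 50% with abnormal brightness, or retests that disagree; inactive means below 50% or failed in later tests; about a fifth of its hits are not listed in these tables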;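 further: calls also rest on retests at 20 µM and on dose response follow-up; controls were probe without protein and protein plus probe with vehicle; some compounds called inactive have numbers as strong as hits; many hits fall short of the cut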
Target sequence (P11940 whole entry, looked up): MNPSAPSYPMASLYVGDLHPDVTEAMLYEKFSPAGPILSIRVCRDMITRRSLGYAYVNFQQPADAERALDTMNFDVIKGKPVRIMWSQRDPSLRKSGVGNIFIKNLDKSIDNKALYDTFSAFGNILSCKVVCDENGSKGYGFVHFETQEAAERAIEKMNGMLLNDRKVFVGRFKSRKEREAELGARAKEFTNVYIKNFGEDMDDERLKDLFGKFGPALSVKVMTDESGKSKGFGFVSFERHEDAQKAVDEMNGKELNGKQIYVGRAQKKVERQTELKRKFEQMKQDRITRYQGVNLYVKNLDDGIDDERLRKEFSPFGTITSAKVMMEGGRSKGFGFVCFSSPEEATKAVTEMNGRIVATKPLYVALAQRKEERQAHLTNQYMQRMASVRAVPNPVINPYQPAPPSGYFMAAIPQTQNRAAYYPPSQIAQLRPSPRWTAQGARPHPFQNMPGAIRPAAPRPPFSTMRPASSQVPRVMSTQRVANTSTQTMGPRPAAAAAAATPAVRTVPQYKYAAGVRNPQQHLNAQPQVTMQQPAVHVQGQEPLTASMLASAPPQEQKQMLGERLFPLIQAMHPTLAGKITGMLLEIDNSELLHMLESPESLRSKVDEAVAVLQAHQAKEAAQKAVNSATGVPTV
UUG fidelity: alters start codon recognition fidelity in yeast. S. cerevisiae UUG-firefly luciferase reporter, luminescence/redox ratio. activity score, % at 18.7 µM. actives 0.13% (n = 350,000). AID 602363;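 active means replicate mean at a twofold rise or more, about +100% in these data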;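 further: firefly luciferase made from a UUG start codon reports start codon fidelity; reporter light over untreated wells divided by growth signal over untreated wells; some hits fall short of that in this replicate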
eIF4H inh retest: further read-out of eIF4H inh, marked with its call; inhibition, %; compound at 20 µM; confirmation average;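 mean of two retest wells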
PABP FP inh retest: second read-out of PABP FP inh, no call of its own (marks repeat the call); inhibition, %; compound at 20 µM; confirmation repeats;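 mean of two retest wells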
MT1-MMP act inh RFP: recorded beside MT1-MMP act inh, whose call it bears; RFP signal change, %; measured here: RFP expression control read;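 0 = vehicle wells; hits needed this value within 50% of zero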
* = called active by the depositor; i = inactive; u = inconclusive; x = not tested or not shown; & = joins results of further samples.

SMILES	eIF4H inh	CSC inhib	HIV Env fusion	MT1-MMP act inh	MT1-MMP act inh RFP	Rce1 inhib	PABP FP inh	UUG fidelity	others
CCN1C(=O)c2cccc3c(S(=O)(=O)NCc4ccccn4)ccc1c23	1	-2	x	-2	3	i	6	x
Cc1ccc(NC(=O)COC(=O)c2csc3c2CCC(C)C3)cc1S(=O)(=O)N1CCCCC1 (centres undefined)	-9	1	25	-2	-10	i	-3	6
CC(C)C(=O)N1CCN(CCN=CC2=C(O)CC(c3ccco3)CC2=O)CC1 (centres undefined)	13	-11	11&-127	1&0	3&5	x	7	-4&10
CN(Cc1nc(-c2cnccn2)no1)Cc1cccc2ccccc12	-16	15	2	0	0	i	0	-2
COc1ccccc1C(=O)Nc1ccc(S(=O)(=O)N(C)c2ccccc2)cc1	x	3	-15	6	-4	i	x	x
COc1cc(CCC(=O)OCC(=O)c2ccc[nH]2)cc(OC)c1OC	x	-14	x	1	-1	x	x	3
CC(C1CC2CCC1C2)n1c(-c2ccco2)n[nH]c1=S (centres undefined)	-13	-8	11	-1	3	i	16	x
Cc1ccc2nsnc2c1NC(=S)NC(=O)c1ccco1	5	3	0	-2	0	i	5	x
COC(=O)C(Cc1ccccc1)P(=O)(c1ccccc1)c1ccccc1 (centres undefined)	7	-1	-13	-3	-1	i	16	x
Nc1c(S(=O)(=O)c2ccccc2)c2nc3ccccc3nc2n1/N=C/c1ccco1	64	x	-28	5	16	i	32*	-16	eIF4H inh retest=48;PABP FP inh retest=87*
CC(C)CNC(=O)[C@H]1N2C(=O)c3ccccc3C2SC1(C)C (some centres undefined)	-2	-9	5	-2	1	i	-8	-19
Cc1ccc(NS(=O)(=O)c2ccccc2)c([N+](=O)[O-])c1	x	x	u	-1	0	x	x	-1
COc1cccc(CNc2nc3nc(C)c(Cl)c(C)n3n2)c1	16	1	33	2	7	i	9	2
O=C(N/C(=C/c1cccc([N+](=O)[O-])c1)C(=O)N1CCOCC1)c1ccc(Br)cc1	5	29	-1	1	0	i	17	-19
COc1ccc2c(c1)c(=O)c(C(=O)c1ccccc1)cn2Cc1ccccc1	7	13	0	6	8	i	23	-9
C=CCNC(=S)NNc1nc(Nc2ccccc2)nc(N2CCCCC2)n1	0	-8	19	-2	-6	i	6	x
CCN(CC)C(=O)CN1C(=O)/C(=C/c2ccccc2)SC1=S	-3	20	-2	2	0	i	13	-12
Cn1cc([C@@H]2C[C@H]3CN(Cc4cccc(Cl)c4)C(=O)[C@]34CCCN24)c(-c2ccccc2)n1	13	5	20	-1	-3	i	1	-9
COc1ccc(N2C(=O)CC(Sc3nccc(C)n3)C2=O)cc1 (centres undefined)	-2	-12	0	4	4	x	0	-7
COc1ccc(-c2nnn(CC(=O)NCCc3ccc(OC)c(OC)c3)n2)cc1	-5	-9	-34	-1	-4	i	-11	x
CC1CN(C(=O)CN2C(=O)c3ccccc3C2=O)CC(C)O1 (centres undefined)	17	-14	x	0	8	i	16	-12
CN(C)NC1=CC(=[N+]2CCCC2)CC(C)(C)C1	-3	-5	-10	3	12	i	-16	x
COC(=O)c1cc(NS(=O)(=O)c2ccc(N3CCOCC3)c(NC(C)=O)c2)cc(C(=O)OC)c1	0	1	-15	-4	0	i	2	13
COc1cc2c(cc1OC)/C(=C/C(=O)c1ccccc1)NCC2	-5	0	-2	-3	-1	i	-5	-5
CCCCOC(=O)c1nnc(-c2ccccc2)o1	-6	12	-1	2	3	i	-1	x

As a working copy, 18 of the compounds above:
SMILES	eIF4H inh	CSC inhib	HIV Env fusion	MT1-MMP act inh	MT1-MMP act inh RFP	Rce1 inhib	PABP FP inh	UUG fidelity	others
Cc1ccc2nsnc2c1NC(=S)NC(=O)c1ccco1	5	3	0	-2	0	i	5	x
COC(=O)C(Cc1ccccc1)P(=O)(c1ccccc1)c1ccccc1 (centres undefined)	7	-1	-13	-3	-1	i	16	x
Nc1c(S(=O)(=O)c2ccccc2)c2nc3ccccc3nc2n1/N=C/c1ccco1	64	x	-28	5	16	i	32*	-16	eIF4H inh retest=48;PABP FP inh retest=87*
CC(C)CNC(=O)[C@H]1N2C(=O)c3ccccc3C2SC1(C)C (some centres undefined)	-2	-9	5	-2	1	i	-8	-19
Cc1ccc(NS(=O)(=O)c2ccccc2)c([N+](=O)[O-])c1	x	x	u	-1	0	x	x	-1
COc1cccc(CNc2nc3nc(C)c(Cl)c(C)n3n2)c1	16	1	33	2	7	i	9	2
O=C(N/C(=C/c1cccc([N+](=O)[O-])c1)C(=O)N1CCOCC1)c1ccc(Br)cc1	5	29	-1	1	0	i	17	-19
COc1ccc2c(c1)c(=O)c(C(=O)c1ccccc1)cn2Cc1ccccc1	7	13	0	6	8	i	23	-9
C=CCNC(=S)NNc1nc(Nc2ccccc2)nc(N2CCCCC2)n1	0	-8	19	-2	-6	i	6	x
CCN(CC)C(=O)CN1C(=O)/C(=C/c2ccccc2)SC1=S	-3	20	-2	2	0	i	13	-12
Cn1cc([C@@H]2C[C@H]3CN(Cc4cccc(Cl)c4)C(=O)[C@]34CCCN24)c(-c2ccccc2)n1	13	5	20	-1	-3	i	1	-9
COc1ccc(N2C(=O)CC(Sc3nccc(C)n3)C2=O)cc1 (centres undefined)	-2	-12	0	4	4	x	0	-7
COc1ccc(-c2nnn(CC(=O)NCCc3ccc(OC)c(OC)c3)n2)cc1	-5	-9	-34	-1	-4	i	-11	x
CC1CN(C(=O)CN2C(=O)c3ccccc3C2=O)CC(C)O1 (centres undefined)	17	-14	x	0	8	i	16	-12
CN(C)NC1=CC(=[N+]2CCCC2)CC(C)(C)C1	-3	-5	-10	3	12	i	-16	x
COC(=O)c1cc(NS(=O)(=O)c2ccc(N3CCOCC3)c(NC(C)=O)c2)cc(C(=O)OC)c1	0	1	-15	-4	0	i	2	13
COc1cc2c(cc1OC)/C(=C/C(=O)c1ccccc1)NCC2	-5	0	-2	-3	-1	i	-5	-5
CCCCOC(=O)c1nnc(-c2ccccc2)o1	-6	12	-1	2	3	i	-1	x

Continued.
SMILES	eIF4H inh	CSC inhib	HIV Env fusion	MT1-MMP act inh	MT1-MMP act inh RFP	Rce1 inhib	PABP FP inh	UUG fidelity	others
Cc1ccnc(OC(C(=O)O)C(OCc2ccccc2)(c2ccc(F)cc2)c2ccc(F)cc2)n1 (centres undefined)	-9	2	10	-2	2	i	-9	10
COc1ccccc1C(=O)NCc1ccc2c(c1)OCO2	0	13	x	-1	5	i	-8	-11
O=C1OCC2=C1C(c1ccc(F)cc1)Sc1ccccc1N2 (centres undefined)	7	31	x	0	-10	i	11	-9
O=C(COc1cccnc1[N+](=O)[O-])NCc1ccc(F)cc1	-6	4	1	4	2	i	-7	7
Cc1ccc(C(O)c2nc3ccccc3n2C)cc1 (centres undefined)	-9	-10	-9	3	-6	i	2	-4
Cc1ccccc1NC(=O)c1ccccc1NC(=O)CCC(=O)O	6	-10	21	1	5	i	3	x
CCOC(=O)C1=C(C)N(CCCC(=O)O)C(=O)NC1c1ccccc1OS(=O)(=O)c1ccc(C)cc1 (centres undefined)	-15	-7	x	-6	-4	x	-4	-9
COc1ccc(-n2c(=S)[nH]c3c(sc(=S)n3-c3ccccc3)c2=O)c(OC)c1	4	-4	-6	-2	-1	i	12	-9
CCOc1cc(S(=O)(=O)NCc2ccco2)c(OCC)cc1-n1cnnn1	-6	-2	x	3	9	i	-4	x
Cn1c(=O)c(C(=O)NCc2ccccc2Cl)c(O)c2ccccc21	0	-9	-11	-1	5	i	2	-16
O=C(CN1CCN(c2nc(-c3ccccc3)cs2)CC1)Nc1ccc2c(c1)OCO2	-2	0	31	-1	-9	i	0	-19
O=Cc1cccn1-c1cccnc1	-5	x	-4	-2	-3	i	-2	-10
CC(C)(C)NC(=O)NC(=O)COC(=O)c1c(F)cccc1Cl	-7	-2	-7	-4	4	i	-27	-3
CC(C(=O)O)c1ccc(C(=O)c2ccccc2)s1 (centres undefined)	x	5	-4	-3	0	x	x	7
CS(=O)(=O)N(CC(=O)N1CCN(c2ccccc2F)CC1)c1cccc(C(F)(F)F)c1	-8	-16	x	8	-10	i	-18	-14
CN1CCN(C(=O)c2cccc(S(=O)(=O)N3CCCCC3)c2)CC1	-7	0	x	0	1	i	-1	-10
CCOC(=O)C1CCCN(Cc2cccc(Cl)c2)C1 (centres undefined)	4	-3	-18	1	3	i	-4	-7
O=C(O)CCC(=O)N1CCN(Cc2ccc3c(c2)OCO3)CC1	-6	-11	2	-4	-5	i	2	4
O=C(/C=C/c1cccc([N+](=O)[O-])c1)OCC1CCCO1 (centres undefined)	-8	-4	4	0	0	i	2	-2
O=C(CC(c1ccccc1)c1cc(Br)ccc1O)NCc1ccco1 (centres undefined)	-5	12	x	-10	-11	i	-10	-9
Cc1cccc(NC(=S)N=Nc2c(O)n(CN3CCOCC3)c3ccccc23)c1C	2	71	18	8	-2	i	-10	-22
CC(C#N)(Cc1ccccc1)Nc1ccccc1 (centres undefined)	x	-8	3	2	8	i	x	x
C/C(=N\NC(=O)c1ccc(-c2ccccc2)cc1)c1cccc(N)c1	2	14	-14	-4	0	i	2	-23
Cc1cccc(OCCC(=O)NNC(=O)Cn2nc(C)cc2C)c1	x	-14	x	-2	3	x	x	-27
Cc1c(Cc2ccccc2)sc(NC(=O)c2ccco2)c1C(N)=O	-3	13	x	-3	-7	i	6	-14

(next part)
SMILES	eIF4H inh	CSC inhib	HIV Env fusion	MT1-MMP act inh	MT1-MMP act inh RFP	Rce1 inhib	PABP FP inh	UUG fidelity	others
COc1cc(CN2C[C@@H](CO)O[C@@H](n3cnc4c(N5CCOCC5)ncnc43)C2)cc(OC)c1OC	x	x	14	-3	4	x	x	3
CC(C)(C(=O)O)c1ccc([C@H](O)CCCN2CCC(C(O)(c3ccccc3)c3ccccc3)CC2)cc1	-2	-9	-12	3	2	i	2	-11
O=C(N/N=C/c1ccccc1)c1ccc2c(c1)OCO2	0	1	-130	-2	1	i	-3	-29
O=C(Cc1ccc(F)cc1)Nc1ccc(S(=O)(=O)N2CCCCC2)cc1	-5	-19	-7	1	-1	i	-5	x
COc1ccc(/C=C(/C(=O)N2CCCCC2C(=O)O)c2ccc(OC)c(OC)c2)cc1 (centres undefined)	x	x	17	-1	1	x	x	4
O=C1CCCC(O)=C1C(C#Cc1ccccc1)C1=C(O)CCCC1=O	0	0	x	-3	-1	i	11	-13
CCC(C(=O)Nc1nc(C)c(C)s1)c1ccccc1 (centres undefined)	-10	-18	-7	-9	-9	i	-14	-23
O=C(C1CCCN1S(=O)(=O)c1cccc2cccnc12)N1CCc2ccccc21 (centres undefined)	1	1	-17	-4	1	i	3	-6
CC(NC(=O)CN1C(=O)NC(c2ccccc2)(c2ccccc2)C1=O)c1cccs1 (centres undefined)	x	2	x	2	-1	x	x	-5
COc1ccc(C(=O)OCC(=O)Nc2ccc3[nH]c(=O)[nH]c3c2)c(OC)c1OC	x	-4	-49	7	1	i	x	x
C=CCn1ccc(=NC=C(C#N)C#N)c2ccccc21	4	5	-6	-8	0	i	-2	-6

Source: PubChem BioAssay (several laboratories)

An excerpt; rates above refer to the full screens.
